VACV mCherry inh = qHTS for Stage-Specific Inhibitors of Vaccinia Orthopoxvirus: mCherry Reporter Primary qHTS; AID 720579, 2013; hit rate 0.63% among 310,000; Vaccinia virus mCherry reporter infection, fluorescence; about a quarter of the inactives have no number; Potency, µM (doses to about 36.5 µM), without a hit: at the top dose activity change, negative = inhibition, hits mostly inhibitors; active = well fitted inhibition curve with a large enough effect; inconclusive = small, poorly fitted or top-dose-only effect; inactive = no such curve, though single readings can be large or run the other way; tested in A549 cells; also: nearly all actives have a fitted effect of over 35% in size; inactives centre near -10
Vaccinia Venus = qHTS for Stage-Specific Inhibitors of Vaccinia Orthopoxvirus: Venus Reporter Primary qHTS; Vaccinia virus Venus reporter expression, fluorescence; Potency, µM (highest dose often 36.5 µM), for inactives: top-dose activity change, negative = inhibition, actives largely listed as inhibitors; hit rate 0.46% among 330,000; AID 720580, 2013; active means well fitted inhibition curve with a large enough effect; inconclusive means small, poorly fitted or top-dose-only effect; inactive means no such curve, though single readings can be large or run the other way; tested in A549 cells; also: nearly all actives have a fitted effect of over 30% in size; inactives centre near -10
An asterisk follows results filed as active; i = inactive; ? = inconclusive; . = not tested or not shown; & = joins results of further samples; [ ] = remark or other dose. % is scaled to controls: 0 for no effect and ±100 for the full control effect; potency is read from the fitted curve at half-maximal effect.

Every second line gives: VACV mCherry inh	Vaccinia Venus
COC(=O)C1=C(c2ccc(-c3ccccc3)c(F)c2)C[C@@H]2CC[C@H]1N2C(=O)NCc1ccco1
  ?	?
COc1ccccc1N1CCN(C(=O)CN2C(=O)COc3ccc(S(=O)(=O)N4CCOCC4)cc32)CC1
  -11%	-6%
CCOC(=O)c1c(O)c2cc(Cl)ccc2n(CC)c1=O
  ?	-4%
CCc1nc(N)nc(N)c1-c1ccc(Cl)c([N+](=O)[O-])c1
  -15%	0.28µM*
COCCCNc1nc2ccccc2nc1NS(=O)(=O)c1cccc(C)c1
  i	-7%
CCOC(=O)c1cccc(C(=O)OCC)n1
  -18%	-9%
CCCc1nnc(NS(=O)(=O)c2ccccc2)s1
  -2%	-9%
CCN(CC)c1ccc(CNc2ccc(Br)cn2)cc1
  .	-9%
O=C(COC(=O)c1cc(=O)c2ccccc2o1)NCc1ccc(Cl)cc1
  i	-21%
COc1ccccc1-c1noc(CCC(=O)Nc2cccnc2)n1
  i	-13%
Cc1cc(C)cc(S(=O)(=O)Nc2cccc(-c3ccc(N4CCOCC4)nn3)c2)c1
  -17%	-21%
CC1O[C@@H]2O[C@](O[C@H](C)CC[C@@H](C)O)(c3ccccc3)O[C@@H]2C[C@H]1O (stereo not given in full)
  i	-8%
O=S(=O)(NCCO)c1cccc2cccnc12
  i	-4%
COc1ccc(NC(=O)CSc2cc(C(=O)c3nccn3C)c3ccccc3n2)cc1
  -3%	-5%
COc1cccc(CNC(=O)c2[nH]c3cc(C)ccc3c2Sc2ccccc2)c1
  ?	?
CCCOc1ccc(C(=O)Nc2ccc(CN3CCOCC3)cc2)cc1
  i	-13%
Cc1ccc2nc(SC(C)C(=O)NCc3ccco3)[nH]c2c1 (stereo not given)
  i	-16%
Cc1ccc(C(=O)OCc2nnc(-c3ccccc3)o2)cc1S(=O)(=O)N1CCOCC1
  -10%	2%
CCCCCCCCN1C(=O)[C@H](CC(=O)NCCc2ccccc2OC)C[C@@]2(C(=O)OCC)CCC=C12
  i	-21%
COc1cc(-c2[nH]ncc2CN2CCN(Cc3cccs3)CC2)cc(OC)c1OC
  -9%	-19%
Cc1cccc(COc2ccc(/C=C3/C(=O)N(C)C(=S)N3C)cc2)c1
  -16%	3%
Cc1ccc(S(=O)(=O)N2CCC(=O)N(CCOC(=O)NCc3ccccc3)CC2)cc1
  -10%	-7%
CCOC(=O)C1(C)CCCN1C(=O)c1ccc(C(=O)OC)cc1 (stereo not given)
  4%	-3%
COc1ccccc1NC(=O)c1cc(-c2ccc(OC)c(OC)c2)nc2ccccc12
  i	7%
COc1ccc(C(C(=O)NC2CCCCC2)N(Cc2ccco2)C(=O)c2ccccn2)c(OC)c1 (stereo not given)
  9%	9%
O=C(NCCCN1CCN(c2ccc(F)cc2)CC1)c1ccc2nc(Cc3ccccc3)oc2c1
  -25%	-27%
CC(C)C(NC(=O)C1CCCCC1)C(=O)Nc1ccccn1 (stereo not given)
  .	7%
C/C(CC1CC(COCC(C)C)OC1=O)=N\NC(N)=S (stereo not given)
  -16%	?
Cc1cccc(NC(=S)NCc2ccco2)n1
  ?	-19%
COC(=O)/C=C1\SC(=NC(=O)c2cccc([N+](=O)[O-])c2)NC1=O
  i	0%
COc1cc(-n2c(=O)c3ccccc3n(Cc3cccc(Cl)c3)c2=O)cc(OC)c1OC
  ?	?
CCc1nnc(NC(=O)c2ccc3c(=O)n4c(nc3c2)CCC4)s1
  i	-13%
Cc1ccccc1C(=O)NCC(=O)OC(C)C(=O)Nc1cccc(S(=O)(=O)N2CCOCC2)c1 (stereo not given)
  i	-17%
COc1cccc(/C=C/C(=O)OCC(=O)NC2CCCC2)c1
  -20%	-17%
COc1cc2c(cc1OC)C1(Nc3c-2c(-c2ccccc2)nn3-c2ccccc2)C(=O)Nc2ccccc21 (stereo not given)
  -28%	?
COc1ccc(CNC(=O)O[C@H]2Cn3c(=O)ccc(=O)n3[C@@H]3CN(S(=O)(=O)c4ccc(C)cc4)C[C@]23O)cc1OC
  -22%	-26%
Cc1cc2c(n1-c1ccc(C(=O)NCc3ccc(OC(C)C)cc3)cc1)CCCC2
  ?	-27%
Cc1cn2c(=O)cc(COC(=O)c3ccc(NC(=O)COc4ccc(C)c(C)c4)cc3)nc2s1
  -10%	-8%
O=C(Cn1c(=O)oc2ccccc21)NCc1ccc(Cl)cc1
  -8%	-8%
C=CCOc1ccc(/C(O)=C2/C(=O)C(=O)N(CCCn3ccnc3)C2c2cccs2)cc1 (stereo not given)
  .	3%
Cc1cc(C)c(S(=O)(=O)NCC(CCC(=O)O)C(F)(F)F)c(C)c1 (stereo not given)
  -11%	1%
Cc1ccc(NC(=O)c2ccc(C)c(NC3=NC4CS(=O)(=O)CC4S3)c2)cc1C (stereo not given)
  i	-14%
CC1CCN(S(=O)(=O)c2ccc(C(=O)N(C)C3CCS(=O)(=O)C3)cc2)CC1 (stereo not given)
  i	-11%
Cc1[nH]c2ccccc2c1/C=N/NC(=O)c1cccc([N+](=O)[O-])c1
  -21%&-8%	-16%&-11%
O=C(CSc1nc(Nc2ccc(F)cc2)c2ccccc2n1)c1ccc(F)cc1
  -10%	-13%
CC(C(=O)OCC(=O)Nc1ncc(Cl)cc1Cl)N1C(=O)c2ccccc2C1=O (stereo not given)
  .	-15%
Nc1ccc(S(=O)(=O)NCC(=O)OCCOc2ccccc2)cc1[N+](=O)[O-]
  i	-4%
CC(C)CNC(=O)C1(C)CCCN1C(=O)c1c(Cl)cccc1Cl (stereo not given)
  1%	-5%
Cc1ccc(-c2c(C(=O)N/N=C/c3ccsc3)nnn2-c2nonc2N)cc1
  i[7.34 µM]	-10%[7.34 µM]
O=C(NNS(=O)(=O)c1ccc(F)cc1)C1CCCCC1
  -4%	-2%
CCN(CC)S(=O)(=O)c1cccc(NC(=O)/C=C/c2cccc([N+](=O)[O-])c2)c1
  ?	?
COc1ccc(F)c(CN2CCC(N3CCC(C(=O)N4CCOCC4)CC3)CC2)c1
  i	1%
Cc1cccc(C2=NN(c3ccccc3)[C@@H](C(=O)N3CCOC3=O)[C@@H]2C)c1
  ?	-22%
CC(=O)c1ccc(C(=O)N2CCC(n3nccc3NC(=O)C3CC3)CC2)cc1
  -14%	-7%
CCOC(=O)C1CCCN(c2nnnn2-c2ccccc2)C1 (stereo not given)
  -19%	-9%
CC(C)(C)OC(=O)C[C@@H]1C/C=C\C[C@H](CC(=O)N(CCO)Cc2ccccc2)C(=O)N[C@@H](c2ccccc2)COC1=O
  ?	-29%
Cc1ccc(-c2nnc(SCC(=O)NCC3CCCO3)nc2-c2ccc(C)cc2)cc1 (stereo not given)
  i	-13%
CC(C)CCn1c(=O)c2sccc2n2c(CCCC(=O)Nc3ccc(F)c(Cl)c3)nnc12
  -8%	-14%
C[C@H](NC(=O)[C@H](Cc1ccccc1)n1c(=O)[nH]c2ccccc2c1=O)C(=O)N1CCC(C(=O)O)CC1
  1%	1%
CC(=O)Nc1ccc(SCC(=O)NNC(=O)CN(C)S(=O)(=O)c2ccc(C)cc2)cc1
  -8%	-2%

Some values from the list.
CC(C)CNC(=O)C1(C)CCCN1C(=O)c1c(Cl)cccc1Cl (stereo not given) in Vaccinia Venus reads -5%
Cc1ccccc1C(=O)NCC(=O)OC(C)C(=O)Nc1cccc(S(=O)(=O)N2CCOCC2)c1 (stereo not given) in Vaccinia Venus reads -17%

6 neighbouring compounds out of the list so far, quoted:
Every second line gives: VACV mCherry inh	Vaccinia Venus
Cc1[nH]c2ccccc2c1/C=N/NC(=O)c1cccc([N+](=O)[O-])c1
  -21%&-8%	-16%&-11%
O=C(CSc1nc(Nc2ccc(F)cc2)c2ccccc2n1)c1ccc(F)cc1
  -10%	-13%
CC(C(=O)OCC(=O)Nc1ncc(Cl)cc1Cl)N1C(=O)c2ccccc2C1=O (stereo not given)
  .	-15%
Nc1ccc(S(=O)(=O)NCC(=O)OCCOc2ccccc2)cc1[N+](=O)[O-]
  i	-4%
CC(C)CNC(=O)C1(C)CCCN1C(=O)c1c(Cl)cccc1Cl (stereo not given)
  1%	-5%
Cc1ccc(-c2c(C(=O)N/N=C/c3ccsc3)nnn2-c2nonc2N)cc1
  i[7.34 µM]	-10%[7.34 µM]

Following part:
Every second line gives: VACV mCherry inh	Vaccinia Venus
CCC(C)[C@H](NC(=O)N1CCn2c1nc1ccccc12)C(=O)NCc1ccc(OC)cc1 (stereo not given in full)
  -21%	?
Cc1ccc(S(=O)(=O)N2C[C@H]3n4c(=O)ccc(=O)n4C[C@H](OC(=O)NCC4CCCCC4)[C@@]3(O)C2)cc1
  ?	?
CCOc1ccc(N(C)S(=O)(=O)c2ccc3c(c2)CCCN3C(C)=O)cc1
  -8%	-2%
COc1cccc(N2CCN(Cc3nc(N)nc(N4CCCc5ccccc54)n3)CC2)c1
  .	-5%
O=C(CCS(=O)(=O)c1cccc2nsnc12)N1CCN(Cc2ccc3c(c2)OCO3)CC1
  i	-13%
Cc1ccccc1NC(=S)NCC1CCC(CNC(=S)Nc2ccccc2C)CC1 (stereo not given)
  i	0%
COc1ccc(NC(=O)N(C)C[C@H]2OCCCC[C@H](C)Oc3ccc(NC(=O)Nc4ccc5c(c4)OCO5)cc3C(=O)N([C@@H](C)CO)C[C@@H]2C)cc1
  -9%	-27%
CS(=O)(=O)N1CCC(C(=O)NCc2ccccc2)CC1
  -1%	-10%
Cc1c(C(=O)Nc2cccc(F)c2)sc2nc(-c3cc4ccccc4oc3=O)[nH]c(=O)c12
  -8%	12%
Cc1ccc(C)c(N2CCN(C(c3ccccc3)c3nnnn3C(C)(C)C)CC2)c1 (stereo not given)
  -15%	-5%
CC1(C)CC(=O)C2=C(C1)OC(N)=C(C#N)C2c1ccc[nH]1 (stereo not given)
  0%	9%
NS(=O)(=O)c1ccc(-c2ccc(/C=C3\NC(=S)NC3=O)o2)cc1
  -9%	10%
Cc1nc2sc3c(c2c(=O)n1/N=C/c1cccnc1)CCCC3
  -5%	-16%
O=C(CCS(=O)(=O)c1ccc(Cl)cc1)NCCN1C(=O)S/C(=C\c2ccccc2F)C1=O
  -22%	-15%
CCOc1ccc(N(CC(=O)N2CCN(c3ccccc3OC)CC2)S(=O)(=O)c2ccc(C)cc2)cc1
  ?	-20%
CCn1c(SCCN2CCOCC2)nc2c1c(=O)n(C)c(=O)n2C
  -2%	-24%
COc1cccc(OCc2cc(C3Nc4ccccc4C(=O)N3Cc3ccco3)ccc2OC)c1 (stereo not given)
  -20%	0%
Cc1ccc2c(C)nc(Nc3nc(CSc4nc5ccccc5s4)cc(=O)[nH]3)nc2c1
  i	1%
O=C(NCC(c1ccc2c(c1)OCO2)N1CCOCC1)c1c(F)cccc1F (stereo not given)
  7%	-5%
COc1ccc(OC)c(Nc2nc(N)nc(-c3cc4ccccc4o3)n2)c1
  .	-11%
CN1CCN(CCNC(=O)Nc2ccc(Cl)cc2)CC1
  -21%	-10%
CCn1c(N)nc2ccccc21
  .	-15%
CCOC(=O)C1CCCN(Cc2ccc(OCC)cc2)C1 (stereo not given)
  i	0%
C/C(=N\NC(=O)Cc1ccc(Cl)c(Cl)c1)c1cccnc1
  -5%	-24%
COc1cccc(NC(=O)Cn2c(=O)c3c(ncn3Cc3ccccc3)n(Cc3ccccc3)c2=O)c1
  ?	-16%
Cc1ccccc1NC(=O)CNc1ccccc1C(=O)NCc1ccco1
  .	-30%
CC(=O)Nc1ccc(NC(=O)C(C)OC(=O)c2ccc(N(C)C)cc2)cc1 (stereo not given)
  ?	?
N#C/C(=N/Nc1ccc(S(=O)(=O)N2CCOCC2)cc1)C(N)=O
  -7%	-3%
COCCCNC(=O)c1csc([C@@H]2C[C@H](O)[C@@H](CO)O2)n1
  -3%	-6%
COc1ccc(-n2c(=O)c3ccccc3n(CC(=O)NCCc3ccc(OC)c(OC)c3)c2=O)cc1
  -10%	-14%
COC(=O)C1=C(c2cccc(OCc3ccccc3)c2)C[C@@H]2CC[C@H]1N2C
  i	-11%
CCOC(=O)c1cc(C#N)c(N2CCCC2)nc1-c1ccccc1
  .	-26%
O=[N+]([O-])c1cccc(NNS(=O)(=O)c2ccccc2F)c1
  ?	-20%
CCOC(=O)c1c(C)oc(=O)c(CC)c1O
  i	-3%
COc1ccc(F)cc1-c1cc(C(=O)NCc2cccc(C(F)(F)F)c2)[nH]n1
  -4%	0%
C=CCSC(CC)(CC)C(N)=O
  i	-7%
Cc1cc(Br)ccc1NC(=O)CN1C(=S)NC(C)(C)CC1C (stereo not given)
  -8%	-18%
O=C(c1cccs1)N1CCCC(c2nc3c(nnn3Cc3ccc(F)cc3)c(=O)[nH]2)C1 (stereo not given)
  -7%	-19%
CC(=O)N1N=C(c2ccco2)CC1c1cc2ccc(C)cc2nc1Cl (stereo not given)
  i	0%
O=[N+]([O-])c1ccc(S(=O)(=O)NN=C2CCCCC2)cc1
  -5%	-7%
O=C(c1ccccc1F)N1CCN(S(=O)(=O)c2ccc(S(=O)(=O)N3CCCCCC3)cc2)CC1
  i	-8%
CC(Sc1ccc(S(=O)(=O)N2CCOCC2)cn1)c1ccccc1Cl (stereo not given)
  -13%	-14%
CCOC(=O)C1=C(C)NC(C)=C(C(=O)OCC)C1C(=O)OCC(=O)N(C)C
  i	-4%
COc1ccc(C(C)C)cc1-c1cc(C(=O)NCc2cc(C(F)(F)F)cc(C(F)(F)F)c2)[nH]n1
  24%	4%
